RanGTP-Imp inh = inhibitors of RanGTP-importin-beta interaction, primary screen, biochemical, FRET, CFP-Ran, YFP-importin-beta, homogeneous; Ran GTPase (GTP-bound) - importin-beta complex; cell-free CFP-Ran/YFP-importin-beta FRET ratio; inhibition, % (no concentration beside the values); actives 1.1% (n = 300,000);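 active = most replicates above 15%; inconclusive = exactly half above 15%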;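 also: 0% = DMSO wells and 100% = Ran loaded with GDP instead of GTP; wells of about 40 µL received 100 nL stock; the first replicate is given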
A1 inh = caspase 3/7 activation in MEF A1-2A-BIM cells, primary screen, A1 inhibitor project, cell-based, luminescence, HTS. Caspase-Glo 3/7 luminescence, 3 h; percent of clofoctol response, vehicle zero. caspase activation, % (test concentration not listed). actives 0.066% (n = 330,000). AID 2462, 2010;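 active = over half of replicate activation scores above 10%, or exactly half above 10 with the replicate mean above 10; inconclusive = replicate mean below 10 yet half the replicates above 10; inactive = over half of replicates below 10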;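 also: wells of about 30 µL received 50 nL stock; many hits fall short of the cut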
Ecoli rRNA inh = reduced GFP signal of wild-type E. coli, primary screen, bacterial rRNA inhibitor project, GFP/RFP fluorescence, OD600, single point | E. coli WT GFP vs humanized-ribosome RFP mutants, 24 h; active compounds read low; DMSO median 0, no signal -100 | GFP signal change (wild-type ribosome), % (test concentration not listed) | actives 1.6% (n = 350,000) | AID 720706, 2013;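 active = significant combined selectivity score with lowered wild-type GFP, culture density cut under 30%, mutant RFP and density less affected; inactive = any of these conditions unmet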; also: one replicate is shown; some compounds called inactive have numbers as strong as hits
Vif A3G = inhibitors of Vif binding to APOBEC3G peptide, primary screen, biochemical, TR-FRET, GST-Vif 1-94, biotin-A3G peptide, dose response retest (AID 1117319). TR-FRET GST-Vif / biotin-A3G peptide binding; higher % means a stronger effect; test concentration not given here; strong numbers were not always called active. one-dose inhibition, %; IC50 in µM for titrated hits. actives 0.57% (n = 260,000);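 active = above the screen mean plus three standard deviations and confirmed in dose response; inconclusive = results disagree or hit not tested in dose response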;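 also: Vif residues 1-94 fused to GST binding biotinylated APOBEC3G peptide 110-148; 0% = full assay without inhibitor and 100% = GST in place of GST-Vif; retest series ran down from 100 µM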
T cruzi repl = inhibitors of intracellular T. cruzi growth, primary screen, luminescence, NIH3T3 host cells; T. cruzi beta-gal in NIH3T3, 90 h; inhibition, % (test concentration not listed); actives 1.4% (n = 300,000); AID 1885, 2009;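 active = mean inhibition across valid replicates above about 55%, limit read from the data; inconclusive = mean below that limit but half or more replicates reach it; inactive = mean below it, under half of replicates reach it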;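 also: signal also drops with host cell toxicity which is not excluded here; 0% = plate median of DMSO wells and 100% = zero luminescence signal; higher percent means less beta-gal luminescence so fewer parasites; stock transfer was 50 nL into about 50 µL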
MLL AF4-AF9 inh = inhibitors of AF4 peptide binding to AF9, primary screen, biochemical, AlphaScreen, biotin-AF4 peptide, FLAG-AF9, single point; inhibition, % at 10 µM; actives 0.47% (n = 350,000);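 active = every replicate reaching a set inhibition limit, whatever the replicate mean, cut at about 25% in these data; inconclusive = mean inhibition reaches that limit but some replicates miss it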;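 also: 0% = plate neutral control median and 100% = total signal loss; the record names both 10 and 1 µM as test concentration; the first replicate is given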
Target sequence (P42568 whole entry, looked up): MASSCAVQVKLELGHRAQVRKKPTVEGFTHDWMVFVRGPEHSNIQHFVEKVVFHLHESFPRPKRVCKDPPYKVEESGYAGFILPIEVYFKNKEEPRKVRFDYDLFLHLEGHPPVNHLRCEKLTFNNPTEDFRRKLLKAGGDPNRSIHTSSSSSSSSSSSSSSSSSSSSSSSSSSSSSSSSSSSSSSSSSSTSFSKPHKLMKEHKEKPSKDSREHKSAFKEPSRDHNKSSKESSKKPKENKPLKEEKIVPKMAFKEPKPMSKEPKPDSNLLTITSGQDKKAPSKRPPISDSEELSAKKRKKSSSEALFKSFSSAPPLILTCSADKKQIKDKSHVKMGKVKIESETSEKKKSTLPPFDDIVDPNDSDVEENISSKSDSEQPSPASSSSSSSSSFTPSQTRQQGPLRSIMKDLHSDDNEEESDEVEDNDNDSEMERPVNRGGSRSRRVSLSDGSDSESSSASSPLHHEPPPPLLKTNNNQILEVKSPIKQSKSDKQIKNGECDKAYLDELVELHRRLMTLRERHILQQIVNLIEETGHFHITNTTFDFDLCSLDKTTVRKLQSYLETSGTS
Calb FLC = C. albicans growth inhibition with fluconazole, primary screen, CaCi-2 strain, Alamar Blue fluorescence | C. albicans CaCi-2 (fluconazole-resistant clinical isolate) + fluconazole, 48 h | actives 0.57% (n = 300,000) | growth inhibition, % (no concentration beside the values) | AID 1979, 2009;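 active = most replicates above 75%; inconclusive = exactly half above 75%; inactive = most below 75%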;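 also: all wells also contain fluconazole at 8 µg/ml as a sub-toxic cotreatment; 0% = median of DMSO wells and 100% = median of geldanamycin control wells; wells of about 8 µL received 7.5 nL stock; the first replicate is given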
Beta apoptosis = inhibitors of cytokine-induced beta cell apoptosis, primary screen, luminescence; protection from apoptosis, % (concentration not given with the values); actives 0.8% (n = 300,000); INS-1E cytokine-induced death, ATP luminescence, 48 h; percent of positive-control rescue, neutral wells zero; AID 435005, 2010;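 active = all replicates at 75% or more, or half of them and the mean; inconclusive = half reach 75% but not the mean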;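 also: 0% = cytokine-treated negative control wells and 100% = positive control rescue; higher means more ATP so stronger rescue from cytokine killing; wells of about 40 µL received 100 nL stock; the first replicate is given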
Ecoli rRNA inh OD600 = further read-out of Ecoli rRNA inh, marked with its call; OD600 change, %; measured here: OD600 growth;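 optical density of the mix in the first replicate; 0 = DMSO median and -100 = no signal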
Ecoli rRNA inh RFP = recorded beside Ecoli rRNA inh, whose call it bears; RFP signal change, %; measured here: RFP humanized mutant strains;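 first replicate; 0 = DMSO median and -100 = no signal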
* hit, by the source's call; u = inconclusive; x = not tested or not shown.

Below each compound: Ecoli rRNA inh | Calb FLC | Beta apoptosis | Ecoli rRNA inh OD600 | Vif A3G | Ecoli rRNA inh RFP | MLL AF4-AF9 inh | A1 inh | RanGTP-Imp inh | T cruzi repl
1: CC(C)CNS(=O)(=O)c1ccc(CCC(=O)NC2CCCCC2)cc1
→ 15 | -8 | 1 | 1 | x | -2.8 | -0.9 | 0.2 | 12 | -3
2: Cc1ccc(NC(=O)C(c2ccc(Cl)cc2Cl)N2CCCC2)cc1 (stereo unspecified)
→ x | 11 | x | x | 2% | x | 2.4 | 0.2 | -2.8 | 13
3: S=C1NC(c2ccccc2)=CC(c2ccccc2)N1 (stereo unspecified)
→ 14 | 45 | -6 | 32 | 9% | 5.5 | -19 | 0.4 | -0.8 | 18
4: Cc1ccc(/C(O)=C2/C(=O)C(=O)N(CCN3CCOCC3)C2c2cccs2)cc1 (stereo unspecified)
→ 26 | 2 | 2 | 11 | 1% | 1.2 | -45 | -0.4 | -1.9 | -11
5: CCOC(=O)N1CCC(N2Cc3cccc(C(=O)Nc4ccccc4OC)c3C2=O)CC1
→ -21* | -15 | 4 | -16* | -4% | 1.4* | 1.8 | 1.0 | 3.1 | 7
6: Cc1ccc(C)c(NC(=O)C2CC(Cl)=CCC2C(=O)O)c1 (stereo unspecified)
→ x | -1 | -7 | x | 10% | x | x | 1.0 | 2.2 | -13
7: Cc1cc(NC(=O)CSc2nnc(-c3ccc(O)cc3)o2)no1
→ -3 | 12 | -1 | 13 | 23% | 3.5 | x | -0.8 | -0.1 | -36
8: O=C(N/N=C/c1cccc([N+](=O)[O-])c1)c1cc2ccccc2o1
→ 5 | -1 | 13 | 3 | x | -0.5 | -2.4 | u | -2.5 | 4
9: O=C(CN1CCC(n2cnc3cc(F)ccc32)CC1)Nc1ccccc1Br
→ -22 | 16 | 9 | -27 | 1% | -2.3 | 1.7 | -0.3 | -1.1 | 12
10: COc1ccc(Cl)cc1NC(=O)c1cccc(NC(=O)CCC(=O)O)c1
→ 1 | 0 | x | 3 | 7% | 4.9 | -1.6 | 0.3 | 2.9 | -1
11: COc1ccc(C(CNC(=O)CCC(=O)c2ccc(C)s2)N2CCOCC2)cc1 (stereo unspecified)
→ 7 | x | -3 | 10 | -2% | 0.8 | 1.7 | 1.6 | x | x
12: CCn1c(=O)n(CC(=O)N2CC(C)CC(C)C2)c(=O)c2ccccc21 (stereo unspecified)
→ x | -5 | 4 | x | -2% | x | x | -0.5 | 4.7 | 9
13: COc1cc(-c2cc(C(=O)Nc3ccc(O)cc3)c3ccccc3n2)cc(OC)c1OC
→ -13 | 6 | 10 | -6 | 7% | 15 | 10 | 0.4 | 0.6 | -13
14: COC(=O)Cn1c(=NC(=O)CSC(C)=O)sc2ccccc21
→ 2 | -2 | -5 | 3 | -12% | -2.9 | 5.0 | -0.3 | 9.0 | -4
15: CC(=O)c1cnc2cc(-c3ccc(C)cc3)nn2c1C
→ x | -10 | -3 | x | -5% | x | x | -4.0 | -0.2 | -7
16: Cc1cc(C(=O)OCC(=O)N2CCOCC2)c2ccccc2n1
→ x | 1 | -10 | x | 8% | x | x | -0.7 | 1.5 | 3
17: COCCSc1nnc(NC(=O)COc2ccc3c(c2)OCO3)s1
→ 3 | 18 | -2 | 9 | x | -0.7 | -0.2 | -0.7 | 0.0 | -4
18: Nc1nc(N2CCN(Cc3ccccc3)CC2)n[nH]1
→ 13 | 7 | x | 6 | x | 1.2 | 2.4 | 0.6 | 2.2 | 2
19: Cc1ccc(NC(=O)C2CC(=O)OC23CCOC(C)(C)C3)cc1 (stereo unspecified)
→ x | -6 | 0 | x | -8% | x | x | -0.7 | 5.1 | 2
20: COC(=O)COC(=O)c1ccc(O)cc1
→ x | -18 | -1 | x | -1% | x | x | -0.6 | 1.7 | 3
21: CCN1CCN(c2ccc(S(=O)(=O)N3CCCCC3)cc2NC(=O)/C=C/c2ccc(OC)c(OC)c2)CC1
→ -4 | -5 | 3 | 1 | -9% | 5.6 | 9.9 | -0.1 | 3.1 | 4
22: CCCCn1c(NCc2ccccn2)nc2ccccc21
→ x | 0 | -5 | x | 2% | x | x | -0.7 | -1.1 | -1
23: CC(=O)/C(=N/Nc1ccc(Br)cc1)Sc1cccc2cccnc12
→ x | -3 | -3 | x | 8% | x | 0.5 | 0.5 | -3.9 | 2
24: Nc1nnc(SCC(=O)Nc2ccc(N3CCOCC3)cc2)s1
→ 8 | -11 | x | 3 | 2% | -2.7 | 0.2 | -0.4 | -3.9 | 5
25: Cc1ccc(-n2ncc3c(=O)n(CC(N)=O)cnc32)cc1C
→ -2 | 6 | x | -2 | x | -1.8 | 0.0 | -0.6 | 4.5 | -17
26: CCOC(=O)N1CCN(CC(O)COc2ccccc2C(C)CC)CC1 (stereo unspecified)
→ x | 6 | -4 | x | -3% | x | x | -1.5 | -4.9 | -3
27: CC(C)c1ccc2oc(-c3ccc(NC(=O)c4ncn[nH]4)cc3)nc2c1
→ x | 88* | 0 | x | 19% | x | x | -3.1 | -0.2 | 39
28: COC(=O)c1ccc(CSc2nnc(Nc3ccccc3OC)s2)o1
→ x | -5 | -4 | x | 7% | x | x | -0.9 | -2.4 | -5
29: NC(=O)c1ccccc1NC(=O)/C=C/c1ccccc1
→ x | 1 | 5 | x | x | x | x | 0.2 | -1.2 | 12
30: CC(C)(C)NC(=O)Nc1ccc(Cn2cc(C(F)(F)F)ccc2=O)cc1
→ 7 | -16 | x | 9 | -2% | -1.0 | -0.8 | 1.3 | -0.1 | -4
31: COc1ccc(C(=O)Nc2ncc3c(n2)CC(c2ccco2)CC3=O)cc1 (stereo unspecified)
→ -4 | 20 | -2 | -3 | -2% | 1.6 | x | -1.1 | 1.2 | 5
32: O=C(Nc1ccc(Cl)c(Cl)c1)Nc1ccccc1C(=O)O
→ x | -1 | 0 | x | -3% | x | x | -6.9 | u | -43
33: CCc1ccc(CN(C)CC(=O)Nc2sccc2C#N)cc1
→ x | -3 | 2 | x | x | x | x | -0.4 | -3.3 | -4
34: O=C(c1cccs1)N1CCN(c2nc3ccc([N+](=O)[O-])cc3s2)CC1
→ 9 | -1 | x | 9 | -3% | -0.3 | -8.0 | 0.0 | -0.8 | -9
35: COc1ccc(-c2ccc(S(=O)(=O)NCC3CCCO3)cc2)cc1 (stereo unspecified)
→ x | 36 | 6 | x | 4% | x | x | -0.2 | 0.6 | -51
36: c1ccc2c3c(c(CN4CCCC4)cc2c1)COC3
→ 9 | -13 | -1 | 12 | 10% | 2.7 | -1.3 | 0.9 | -3.2 | -5
37: Cc1cc(N2CCCC2)ccc1NC(=O)CN1C(=O)NC(C)(c2ccccc2)C1=O (stereo unspecified)
→ 4 | 1 | 9 | -1 | x | 3.5 | 20 | -1.6 | 3.8 | 9
38: Nc1ccc2nc(CCCCCCc3nc4ccc(N)cc4[nH]3)[nH]c2c1
→ 10 | 20 | 0 | 17 | 3% | -5.7 | 4.8 | 2.1 | x | -17
39: COc1cc(C(=O)OCC(=O)Nc2ccc(SC(F)F)cc2)cc(OC)c1OC
→ x | -11 | x | x | x | x | x | 1.0 | 1.2 | 7
40: O=C(Cc1ccccc1F)OCC(=O)N1CCN(C(=O)c2ccco2)CC1
→ 21 | -22 | 2 | 15 | 1% | -0.9 | -1.4 | 0.1 | 1.7 | -6
41: COc1ccc(/C=N/n2cnc3c([nH]c4ccc(Br)cc43)c2=O)cc1CN1CCOCC1
→ x | -1 | 10 | x | 26% | x | x | 0.5 | -0.3 | 14
42: CCc1cc(C(c2ccc(OC)c(OC)c2)N2CCOCC2)c(NC(=O)c2ccccc2)s1 (stereo unspecified)
→ x | 8 | -17 | x | x | x | x | 0.3 | 11 | -4
43: CSc1cccc(NC(=O)Cn2cnc(S(=O)(=O)N3CCCC3)c2)c1
→ 11 | -5 | 0 | 4 | -2% | 1.6 | 1.3 | 0.3 | 1.7 | -6
44: CC(C)(C)c1ccc(CS(=O)CC(O)CO)cc1 (stereo unspecified)
→ x | -1 | -12 | x | -8% | x | x | 0.1 | -0.8 | -5
45: CN(C)S(=O)(=O)c1ccc(C(=O)NC(=O)CSc2ccccc2)cc1
→ x | -3 | -9 | x | -3% | x | x | 0.8 | u | -14
46: S=c1[nH]nc(-c2cccs2)n1/N=C/c1cn(-c2ccccc2)nc1-c1ccc(Cl)cc1
→ 6 | -1 | 7 | 18 | -26% | 0.4 | 0.1 | -0.4 | 6.1 | 31
47: COc1ccc(N(C)C(=S)Nc2ccc3nc(C)c(C)nc3c2)cc1
→ x | -4 | 0 | x | x | x | 2.1 | 0.1 | -1.9 | -2
48: CC(OC(=O)c1cc(S(=O)(=O)N2CCOCC2)ccc1F)C(=O)NC1CCCC1 (stereo unspecified)
→ 7 | x | -1 | 13 | -1% | -0.6 | -0.3 | 0.4 | x | x
49: Cc1ccsc1C(=O)OCC(=O)Nc1ccc(Cl)cn1
→ -23* | x | -11 | -16* | x | -3.0* | 0.1 | -1.5 | x | x
50: CCOC(=O)C(=CNc1cc(C)ccc1-n1cccc1)C(=O)OCC
→ 2 | 18 | 3 | 4 | x | -1.5 | x | 1.9 | 1.2 | 16
51: CCCc1cc(C(F)(F)F)c(C#N)c(=O)[nH]1
→ x | -8 | 0 | x | 11% | x | x | 0.3 | 1.9 | -18
52: N#Cc1cc2cc3c(cc2nc1NCCNC(=S)NCCCN1CCOCC1)OCO3
→ 1 | 31 | 2 | -5 | x | -1.0 | -2.6 | 0.4 | 1.7 | -7

Some of the compounds tested; the hit share may differ from the screen's.
